# ClpP mod – qHTS Assay for Activators of ClpP; Potency, µM (titrated, usually from 57.5 µM), for the others: at the highest dose activity change, negative = active; 340,000 tested, 1.9% active; ATP-dependent Clp protease proteolytic subunit (Bacillus subtilis (strain 168)), P80244; AID 651965, 2013; purified B. subtilis ClpP, FRET peptide cleavage, 20 min; active = well fitted falling curve with a large enough effect; inconclusive = small, poorly fitted or top-dose-only effect; inactive = no such curve, though single readings can be large or run the other way; also: potency is read from the fitted curve at half-maximal effect; the source files actives as falling curves though it sought activators and does not explain the sign; nearly all actives have a fitted effect of over 65% in size; many hits overshoot -100%
# Target sequence (P80244 whole entry, looked up): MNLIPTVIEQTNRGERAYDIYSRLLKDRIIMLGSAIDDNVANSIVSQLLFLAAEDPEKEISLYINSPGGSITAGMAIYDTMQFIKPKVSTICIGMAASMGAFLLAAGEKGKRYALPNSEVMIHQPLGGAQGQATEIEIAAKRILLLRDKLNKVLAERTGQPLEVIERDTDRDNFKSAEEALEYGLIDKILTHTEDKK
#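 FRET quenching reversal measured ClpP activation: 10 microg/mL B. subtilis ClpP at pH 8 with the FRET-FV decapeptide, read at 430 nm after 320 nm excitation. The 20-min minus 0-min signal was scaled between DMSO/no-enzyme wells and ADEP (5.8 microM final).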
# TRPML1 blocker – qHTS for Inhibitors of the Human Mucolipin Transient Receptor Potential 1 (TRPML1) | Mucolipin-1 (Homo sapiens), Q9GZU1 | TRPML1-inducible cells, Ca2+ dye fluorescence, FDSS; stronger effect = lower value; inhibition of EC80 agonist-evoked calcium signal | activity change, negative = inhibition, % (concentration not given with the values) | 390,000 tested, 0.02% active | AID 624415, 2012; in the data active means activity change below about -50%; inconclusive means about -30% to -50%; inactive means above about -30%;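 also: stimulus is agonist 54-4 at its EC80 concentration; % is scaled to controls: 0 for no effect and ±100 for the full control effect; compound concentration not given in the record; the text of the record puts the active cut at -80%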
# Target sequence (Q9GZU1 whole entry, looked up): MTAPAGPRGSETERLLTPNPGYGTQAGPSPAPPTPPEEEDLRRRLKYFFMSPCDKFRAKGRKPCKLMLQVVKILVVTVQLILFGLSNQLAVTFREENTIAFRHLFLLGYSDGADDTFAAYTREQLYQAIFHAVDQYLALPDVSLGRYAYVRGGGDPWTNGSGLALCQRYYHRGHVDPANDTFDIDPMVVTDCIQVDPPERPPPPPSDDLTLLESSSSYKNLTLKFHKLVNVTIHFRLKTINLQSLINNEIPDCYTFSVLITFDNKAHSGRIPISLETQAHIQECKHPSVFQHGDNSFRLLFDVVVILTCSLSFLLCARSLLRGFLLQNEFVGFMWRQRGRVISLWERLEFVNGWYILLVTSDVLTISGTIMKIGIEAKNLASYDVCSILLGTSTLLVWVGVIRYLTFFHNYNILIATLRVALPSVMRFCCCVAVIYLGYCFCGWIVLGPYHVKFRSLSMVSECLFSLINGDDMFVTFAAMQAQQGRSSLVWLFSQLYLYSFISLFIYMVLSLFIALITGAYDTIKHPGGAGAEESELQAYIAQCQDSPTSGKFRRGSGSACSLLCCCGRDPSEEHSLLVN
#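 Tet-induced TRPML1-DL cells loaded with Ca8 no-wash calcium dye were read kinetically on FDSS. Compound addition was followed by EC80 agonist 54-4 (4 uM final); inhibition was read over 110 s.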
# Menin-MLL FL inh – qHTS Assay for Inhibitors Targeting the Menin-MLL Interaction in MLL Related Leukemias: Competition With Fluorescein Labeled MLL-derived Peptide. Fluorescence polarization, fluorescein-MLL peptide displacement from menin. FP activity change, % at 61.4 µM. 290,000 tested, under 10 active. AID 1766, 2009; inconclusive = falling polarisation curve, or a change in total fluorescence; inactive = total fluorescence flat and polarisation flat or rising; no compound was filed as active; the % refers to the polarisation; negative = inhibition;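 also: % of control where 0% means no effect; inhibitors lower the polarisation; unlabelled MLL peptide was the positive control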
# gsp antagonist – qHTS for Antagonists of gsp, the Etiologic Mutation Responsible for Fibrous Dysplasia/McCune-Albright Syndrome: qHTS. gsp-mutant cells, cAMP HTRF, 30 min; control for the full effect not named in the record. Potency, µM (top dose mostly 76.9 µM), for inactives: at the highest dose activity change, negative = inhibition, most hits filed as inhibitors. 340,000 tested, 0.4% active; active = falling curve of any shape with a large fitted effect; inconclusive = falling curve, mostly with a smaller effect; inactive = flat or rising curve; cell line not stated here;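 also: intracellular cAMP measured with PDE inhibitor Ro 20-1724 present during compound exposure; potency is read from the fitted curve at half-maximal effect; % is scaled to controls: 0 for no effect and ±100 for the full control effect; nearly all actives have a fitted effect of over 65% in size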
#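 Measurement of cellular cAMP by homogeneous time-resolved fluorescence following a 30 min compound exposure at 37C. The PDE inhibitor […] was present throughout; the assay buffer was DPBS with 0.05% BSA and 0.005% Tween 20.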
# gsp ag – qHTS for Agonist of gsp, the Etiologic Mutation Responsible for Fibrous Dysplasia/McCune-Albright Syndrome: qHTS | gsp mutant cells, cAMP HTRF, 30 min; control for the full effect not named in the record | Potency, µM (doses to about 76.9 µM), for inactives: at the top dose activation (cAMP increase), usual class: activators | 340,000 tested, 0.13% active; active = well fitted activation curve with a large enough effect; inconclusive = small, poorly fitted or top-dose-only effect, or another doubt; inactive = no such curve, though single readings can be large or run the other way; cell line not stated here;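 also: phosphodiesterase inhibitor Ro 20-1724 added with compounds to block cAMP breakdown; potency is read from the fitted curve at half-maximal effect; nearly all actives have a fitted effect of over 60% in size; about a fifth of the inactives were tested at one dose only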
#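 Cells stably selected in G418 were plated at 2000/well, grown 16-24 hr, then given compounds in DMSO with the PDE inhibitor […] (300 uM solution added) for 30 min at 37C; cAMP was read by HTRF.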
# TRPML1 ag – qHTS for Agonists of the Human Mucolipin Transient Receptor Potential 1 (TRPML1) | TRPML1-expressing cells, Ca2+ dye fluorescence, FDSS; host cell line not named in the record; reference of the full effect not given here | 410,000 tested, 0.12% active | activation, % (no concentration beside the values) | Mucolipin-1 (Homo sapiens), Q9GZU1 | AID 624414, 2012; in the data active = activation above about 50%; inconclusive = about 30% to 50%; inactive = below about 30%; also: 0% is about no effect; the text of the record puts the active cut at 80%
#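 In this qHTS format, compounds were pin-transferred onto Ca8-dye-loaded TRPML1-DL cells induced with Tet overnight, and intracellular Ca2+ fluorescence was recorded kinetically for 110 s after a 10 s baseline. A subsequent 4uM final 54-4 (EC80) addition followed by a second 110 s read served as the antagonist phase.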
# * hit, by the source's call; ? = inconclusive; / = not tested or not shown; & = joins results of further samples; [ ] = remark or other dose.
canonical_smiles	ClpP mod	TRPML1 blocker	Menin-MLL FL inh	gsp antagonist	gsp ag	TRPML1 ag
CN(C(=O)CSc1nc2cc([N+](=O)[O-])ccc2n1-c1ccc(F)cc1)C1CCS(=O)(=O)C1 (centres undefined)	-2.1%	6	13	-11%	-30%	-0.6
COc1ccc(C)cc1-n1c(SCC(=O)NC2CC2)nc2ccccc2c1=O	-0.8%	26	/	1%	26%	-0.9
CCCCN(C(=O)CNC(=O)c1ccco1)C(C(=O)NC1CCCCC1)c1cccnc1 (centres undefined)	/	6	1.6	6%	7%	-0.2
COc1ccccc1CNc1nc(NCc2ccccc2F)c2sccc2n1	-11%	1	/	/	/	-0.1
Cc1cc2c(cc1C)NC(c1nc3ccccc3[nH]1)C1=C(CC(C)(C)CC1=O)N2 (centres undefined)	-1.8%	17	-0.8	2%	-4%	1.4
CCOc1ccc(C(C)NC(=O)c2cc(=O)[nH]c3ccccc23)cc1OCC (centres undefined)	/	-13	1.3	8%	8%[15.4 µM]	-0.1
CC(C)(C)c1ccc(C(=O)NCCOc2ccccc2)cc1	/	5	-0.1	5%	-2%	1.5
CCC(=O)N1CCN(CCN=CC2=C(O)CC(c3cccs3)CC2=O)CC1 (centres undefined)	-1.3%	-8	-1.7	-7%	1%	-0.3
CCCN(C(=O)C(=O)Nc1ccc2nc3n(c(=O)c2c1)CCCCC3)c1ccc(OCC)cc1	-0.2%&2.2%	20&19	4.0	-13%	-6%	0.5&5.0
C/C(CC(=O)Nc1cccc2c1CCCC2)=N\NC(=O)COc1ccccc1	-4.6%	-12	-1.8	-1%	?	0.2
CCOC(=O)COc1ccc(C)cc1-c1ccno1	-6.0%	24	3.2	-7%	17%	1.9
COc1ccccc1-c1csc(NC(=O)c2ccc(N3C(=O)CCC3=O)cc2)n1	120%	3	3.4	-22%	-17%	0.8
CC(C)C(NS(=O)(=O)c1ccccc1)C(=O)N1CCCC1 (centres undefined)	-0.2%	8	-5.8	-1%	6%[15.4 µM]	-0.4
CCOC(=O)CN1C(=O)CN(c2ccc(C)c(C)c2)C1=O	0.2%	6	3.7	7%	-1%	0.5
CCC(C)C(=O)Nc1nc(C)c(-c2csc(Nc3ccc(Cl)cc3)n2)s1 (centres undefined)	-23%	8	5.0	-3%	2%	0.0
COc1ccc(N(CC(=O)NCCC2=CCCCC2)S(=O)(=O)c2ccccc2F)cc1	/	18	1.1	-10%	0%[15.4 µM]	2.8
COc1ccc(C2C3=C(CC(C)(C)CC3=O)OC(N)=C2[N+](=O)[O-])cc1 (centres undefined)	4.3%	-12	-1.3	-2%	-50%[inhibitor]	0.0
Cc1c(-n2cc(C(=O)c3cc(Br)ccc3O)cc(C#N)c2=O)c(=O)n(-c2ccccc2)n1C	4.5%	-8	?	-23%	-32%[inhibitor]	6.1
O=C(COC(=O)CNC(=O)c1ccccc1Cl)NC1CC1	0.3%	-2	/	12%	-6%	-0.7
O=C(Nc1ccc(OCc2cc(=O)n3c4c(sc3n2)CCCC4)cc1)c1ccccc1	1.7%	6	/	/	/	0.1
CN(C)c1cc(NC(=O)CN2CCOCC2)c2ccccc2n1	3.9%	-5	-1.1	3%	-3%	-0.4
CCn1c(COc2cc(C)cc(C)c2)nnc1SCC(=O)N1CCN(c2ccccc2)CC1	-0.8%	32	-0.4	3%	6%	1.0
COc1ccc(-c2nc(-c3cccc([N+](=O)[O-])c3O)cc(=O)o2)cc1OC	0.8%	-14	-5.0	-2%	-16%	-0.5
CN1CCN(CC(=O)Nc2ccc(Cl)cc2Cl)CC1	-0.5%	6	0.4	4%	-10%	0.9
CC(C)Cn1c(N)c(C(=O)COC(=O)C2CCCCC2)c(=O)n(C)c1=O	-1.5%	-6	2.3	-39%	7%	1.1
CN(C)S(=O)(=O)c1ccc(C(=O)Nc2ccccc2C(=O)O)cc1	-2.6%	20	3.3	-2%	2%	2.7
CCOc1ccccc1NC(=O)CSc1nc2cc(O)ccc2c(=O)n1-c1ccc(OC)c(OC)c1	?	/	-0.9	?	27%	/
CCOc1ccccc1CN1CCN(C/C=C/c2ccc(OC)cc2)CC1CCO (centres undefined)	/	-5	3.7	0%	3%[15.4 µM]	-0.5
CCOC(=O)c1cn(CC(=O)Nc2cccc(Cl)c2)nn1	-2.7%	-14	0.5	4%	-11%	0.8
CC(=O)c1ccccc1OCC(O)CN1CCN(CCN2C(=O)c3cccc4cccc(c34)C2=O)CC1 (centres undefined)	/	-3	-0.7	32µM*	-16%[15.4 µM]	2.6
FC(F)Oc1ccc(NC(=S)NC23CC4CC(CC(C4)C2)C3)cc1	-2.2%	19	-0.9	-11%	-6%[15.4 µM]	0.6
Cc1ccc(N2CC(C(=O)NCCS(=O)(=O)N3CCN(c4ccccc4)CC3)CC2=O)cc1 (centres undefined)	0.1%&-1.0%	1&44	5.4	-1%	-33%[inhibitor]	0.2&0.6
OC1(Cc2ccn[nH]2)CCCCC1	-3.4%	21	0.7	4%	-20%	0.2
O=C(Nc1ccc(Cl)cc1F)C1CCCN(C2=NS(=O)(=O)c3ccccc32)C1 (centres undefined)	-2.9%	23	/	-13%	-3%	0.2
CCC1CN(C(=O)NCc2ccc(C)cc2)c2cc(Cl)ccc2O1 (centres undefined)	-1.4%&0.8%	-15&-3	-5.5	-15%	-43%	3.0&2.5
O=C(Cn1c(CO)nc2ccccc21)Nc1ccc2c(c1)OCCCO2	-0.2%	6	/	4%	-1%	0.3
CC(C)OC(=O)Nc1ccc2c(c1)N(C(=O)CCN(C)C)c1ccccc1CC2	-2.4%	0	0.1	2%	-16%	0.9
CCn1c(SCC(=O)N2CCCC2)nc2c(c1=O)SC(C)C2 (centres undefined)	0.6%	-2	-1.7	-1%	-106%[inhibitor]	0.5
Cc1cc2ccccc2n2c(SCC(=O)N3CCOCC3)nnc12	/	14	-4.2	-8%	?	0.1
COc1ccc(NC(=O)c2cccc(-n3cnnn3)c2)cc1	-0.5%	-5	1.8	7%	-3%	-0.6
N#CCn1c(Cc2ccccc2)nc2ccccc2c1=O	-0.7%	25	3.4	6%	15%	-0.8
COC(=O)c1cccc(N(CC(=O)NC2CCCC2)C(=O)CNC(=O)c2cccs2)c1	/	0	-0.6	-21%	-9%[15.4 µM]	0.1
CC/C(=C\c1ccc(N(C)C)cc1)c1ccncc1	-2.8%	0	/	4%	-11%	0.5
COc1ccc(S(=O)(=O)N(C)C[C@H]2OCc3cnnn3CCCC(=O)N([C@@H](C)CO)C[C@H]2C)cc1	0.5%	12	/	/	?	1.2
Cc1cn(CC(=O)NCc2ccccn2)c(=O)[nH]c1=O	1.9%	7	/	9%	/	0.2
Cc1cccc(NC(=O)CCCCC(=O)Nc2cccc(C)c2)c1	/	5	/	-8%	7%[15.4 µM]	1.7
CCN(CC)C(=O)CSc1nc(O)c(Cc2ccccc2)c(=O)n1-c1ccccc1C	/	-6	0.0	-24%	16%	0.6
CCOC(=O)C1=C(C)NC(C)=C(C(=O)OCC)C1c1cn(-c2ccccc2)nc1-c1ccco1	?	-6	1.7	-18%	15%	-0.7
Cc1ccc(NC(=S)NNC(=O)Cn2nc([N+](=O)[O-])cc2C)cc1	-0.2%	-7	9.8	-1%	14%	0.1
CCOC(=O)CSc1cc(=O)n(CC)c2ccccc12	-26%	0	2.9	?	?	0.3
Cc1ccc(NC(=S)NCc2ccc(S(N)(=O)=O)cc2)cc1Cl	0.1%	4	4.6	22%	-8%[15.4 µM]	0.5
CSCc1c(C(=O)OCC(=O)c2ccc[nH]2)oc2ccccc12	-3.1%	4	/	1%	?	1.5
CN(C)c1ccc(-c2ccnc3c2CC(C)(C(=O)NCc2cccc(Cl)c2)O3)cc1 (centres undefined)	4.4%	54	/	/	/	0.6
CCOc1ccc(NC(=O)Cn2nnc3c(cnn3-c3ccc(F)cc3)c2=O)cc1	1.1%	-13	1.1	5%	-4%	0.1
Cc1cc(NC(=O)CSc2ncnc3c2cnn3-c2ccccc2)no1	/	-6	2.7	7%	-13%[15.4 µM]	0.1
COc1cccc(NC(=O)CSc2nnc(-c3cccc(OC(C)C)c3)n2N)c1	-4.4%	3	-0.7	-10%	4%	0.0
CC(=O)N1c2ccc(S(=O)(=O)NCC3CCC(C(=O)NC4CCC(C)CC4)CC3)cc2CC1C (centres undefined)	0.5%	19	1.6	-7%	11%	-0.8
COc1ccc(CCNC(=O)c2cnn3c(C(F)F)cc(C)nc23)cc1OC	-0.4%	9	4.5	3%	-7%	-0.6
COc1ccc(N=Nc2nc(-c3ccccc3)c(-c3ccccc3)[nH]2)cc1	0.7%	7	?	?	5%[15.4 µM]	2.3
CC(C)(C)c1ccc(C(=O)NCCCNC(=O)c2cccnc2)cc1	/	?	6.6	4%	24%	1.1

# Additional entries.
canonical_smiles	ClpP mod	TRPML1 blocker	Menin-MLL FL inh	gsp antagonist	gsp ag	TRPML1 ag
Cc1cc(C(F)(F)F)n2[nH]c(=O)c(N=Nc3ccccc3)c2n1	/	-6	1.6	-23%	8%	-0.5
COc1ccc(-n2nc(C(=O)NCC(=O)N3CCCCC3)c3ccccc3c2=O)c(OC)c1	/	-1	-0.7	2%	12%	0.7
COc1ccc(CNC(=O)C/C(C)=N/NC(=O)COc2ccc(C)cc2Br)cc1	/	-11	-1.0	19%	1%[15.4 µM]	-0.9
CCN(CC)S(=O)(=O)c1ccc(OCC2CCCCO2)c([N+](=O)[O-])c1 (centres undefined)	-0.2%	10	5.0	7%	-8%[15.4 µM]	-1.2
CCCNC(=S)NNC(=O)c1cccs1	/	-1	0.3	15%	13%	-0.2
CC(Oc1ccc(Br)cc1)C(=O)O/N=C(\N)c1ccncc1 (centres undefined)	1.6%	-1	/	-6%	0%[15.4 µM]	0.3
COc1ccc(S(=O)(=O)N2CCC(C(=O)N3CCOCC3)CC2)cc1OC	-2.0%	-2	1.3	6%	?	0.4

# Screening data: PubChem, National Center for Advancing Translational Sciences (NCATS)
